# Screening data deposited in PubChem by several laboratories.
# Arbovirus inh – antivirals against arbovirus infection, primary screen, cell-based, full library, 10K replicate subset | arbovirus infection cell-based antiviral screen | inhibition, % at 10 µM | 0.37% of 200,000 active;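 active = inhibition from about 30%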;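 note: bluetongue infection of BSR cells; cell survival read as ATP light after 72 h; 0% = infected wells without compound and 100% = uninfected wells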
# Mtb H37Rv – M. tuberculosis H37Rv growth inhibitors, H37Rv strain (AID 1626); M. tuberculosis H37Rv growth inhibition; higher % means a stronger effect; inhibition, % at 10 µM; hits with a dose series show IC50 in µM; 0.95% of 220,000 active;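 active = confirmed in a dose series; inconclusive = inhibition above 80% but not taken into the dose series; inactive = below 80% or under 30% at every dose of the series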;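 note: bacteria incubated seven days before Alamar blue readout; 0% = bacteria only wells and 100% = bacteria with antibiotic wells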
# RecA splice inh – Mtb RecA intein splicing inhibitors, primary screen, biochemical, fluorescence, HTS; Protein RecA (Mycobacterium tuberculosis (strain ATCC 25618 / H37Rv)), P9WHJ3; cell-free RecA intein splicing; inhibition, %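 (about 9 µM by stock and volumes)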; 0.75% of 290,000 active; AID 2221, 2009; in the data active = inhibition above about 30%; inconclusive = no clear call, values can overlap the other calls;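 note: 0% = vehicle wells and 100% = reference inhibitor control wells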
# Target sequence (P9WHJ3 whole entry, looked up, canonical isoform): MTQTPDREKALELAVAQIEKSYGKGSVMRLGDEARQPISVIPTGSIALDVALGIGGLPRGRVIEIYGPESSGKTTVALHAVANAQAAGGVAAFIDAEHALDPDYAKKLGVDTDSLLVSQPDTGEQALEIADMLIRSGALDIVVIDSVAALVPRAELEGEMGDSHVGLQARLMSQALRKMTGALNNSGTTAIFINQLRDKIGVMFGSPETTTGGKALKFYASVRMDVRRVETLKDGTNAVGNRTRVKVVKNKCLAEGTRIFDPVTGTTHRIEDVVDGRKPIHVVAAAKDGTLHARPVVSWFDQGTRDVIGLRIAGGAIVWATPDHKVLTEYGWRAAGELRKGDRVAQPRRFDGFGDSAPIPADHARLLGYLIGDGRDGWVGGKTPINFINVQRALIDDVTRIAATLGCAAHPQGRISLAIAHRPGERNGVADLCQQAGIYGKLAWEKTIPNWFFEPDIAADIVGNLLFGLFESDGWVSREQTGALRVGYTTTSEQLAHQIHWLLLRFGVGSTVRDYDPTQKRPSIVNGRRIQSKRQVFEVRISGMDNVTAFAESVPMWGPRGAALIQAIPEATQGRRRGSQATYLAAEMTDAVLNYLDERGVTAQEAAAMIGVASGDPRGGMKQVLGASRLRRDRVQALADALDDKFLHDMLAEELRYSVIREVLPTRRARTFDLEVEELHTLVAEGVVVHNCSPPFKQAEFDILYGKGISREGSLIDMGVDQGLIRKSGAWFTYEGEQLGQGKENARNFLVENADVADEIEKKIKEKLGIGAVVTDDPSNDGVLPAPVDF
# Mtb bLac sens – beta-lactam sensitization of Mtb H37Rv, H37Rv; AID 434955, 2010; 0.27% of 330,000 active; M. tuberculosis H37Rv growth with meropenem, percent inhibition; hits of this screen are not shown here; inhibition, % at 25 µM;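 active = about 74% or more and at least 40 points above the plate without the antibiotic, then above 30% in a dose series; inconclusive = first-round hits that could not be retested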;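 note: growth measured after seven days incubation then overnight dye step; 0% = bacteria only wells and 100% = bacteria with antibiotic; twin plates without the antibiotic show which effects depend on it; some results filed as inactive read as strong as hits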
# YopH PTP inh – YopH tyrosine phosphatase inhibitors, primary screen, biochemical, fluorescence Ex485/Em525; YopH tyrosine phosphatase [Yersinia enterocolitica]; 0.16% of 140,000 active; inhibition, %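 (about 10 µM by stock and volumes)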; AID 898, 2007;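 active = inhibition of 50% or more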;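 note: controls were vehicle for no effect and minimum signal wells for full effect; inactives centre near -20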
# Arbovirus inh repeat – second read-out of Arbovirus inh, no call of its own (marks repeat the call); inhibition, %; measured here: 10K subset replicate screen; many hits read low in the repeat;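 first of two repeat runs on a subset; 0% = infected and 100% = uninfected wells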
# Starred values were filed as active, the others as inactive; ? = inconclusive; . = no result given.
SMILES,Arbovirus inh,Mtb H37Rv,RecA splice inh,Mtb bLac sens,YopH PTP inh,others
CCCC(C)C(=O)Nc1ccc(S(=O)(=O)Nc2nccc(C)n2)cc1 (centres undefined),-2,-1%,1.5,-4,.,
O=C(NCc1ccc2c(c1)OCO2)c1cc(-c2ccccc2)on1,-2,-12%,.,-4,-23,
COc1ccc([N+](=O)[O-])cc1NCc1ccccc1,-20,12%,7.5,3,-23,
Cc1nn(C(C)(C)C)c(C)c1/C=N/OC(=O)Nc1ccc(Cl)c(Cl)c1,.,9%,-2.0,-13,.,
O=C(CN1C(=O)NC(Cc2c[nH]c3ccccc23)C1=O)NCCc1ccc(F)cc1 (centres undefined),.,.,-1.5,-4,.,
COc1ccc(OC)c(C(=O)NC(CC(N)=O)c2ccc(N3CCN(c4ccccn4)CC3)c([N+](=O)[O-])c2)c1 (centres undefined),.,.,-1.9,-7,.,
CC(C)COC(=O)CNc1n[nH]c(=S)[nH]c1=O,2,11%,2.1,5,-10,
NNC(=O)c1cc2nc(-c3cccs3)cc(C(F)(F)F)n2n1,-4,-3%,.,6,.,
COc1cccc(-c2nn(-c3ccc(F)cc3)cc2C(=O)NCC2CCCO2)c1 (centres undefined),.,.,0.5,-6,.,
COc1ccc(C[C@H](C)NC[C@@H](O)c2ccc(O)c(NC=O)c2)cc1,.,-10%,-2.4,97,.,
CN(C)c1ccc(C(CNC(=O)COc2ccc(Cl)cc2)N2CCCC2)cc1 (centres undefined),.,.,-3.9,1,.,
O=C(O)CSCNC(=O)CC12CC3CC(CC(C3)C1)C2,6,-2%,1.8,1,-35,
CC1CCCCC1NC(=O)c1ccc(NC2=NC3CS(=O)(=O)CC3S2)cc1 (centres undefined),.,.,-5.9,1,.,
COc1cc2c(cc1OC)C(C)N(C(=O)Nc1ccc(F)cc1)CC2 (centres undefined),.,.,-0.1,-4,.,
CCOC(=O)N1CCC(NC(=O)c2cc(C(=O)NCc3cccc(Cl)c3)ccc2CO)CC1,4,-11%,-0.7,52,-21,
Cc1nc2ccc(-c3nc4cc(N)ccc4o3)cc2[nH]1,-18,-9%,-4.1,-1,6,
C=C(c1ccccc1Cl)[n+]1ccccc1,.,.,-1.5,1,.,
CC(=O)Nc1ccc(OCC(O)CN2CCN(c3ccc(C)c(Cl)c3)CC2)cc1 (centres undefined),11,7%,0.1,3,3,
Cc1cc2cc(CN(CCN3CCOCC3)C(=O)Nc3ccccc3F)c(=O)[nH]c2cc1C,4,1%,-2.0,-6,-35,
CN(C)S(=O)(=O)c1cccc(NC(=O)c2sccc2-c2ccccc2)c1,.,.,8.4,-9,.,

# Ordered by heavy-atom count (high to low): some entries from above.
SMILES,Arbovirus inh,Mtb H37Rv,RecA splice inh,Mtb bLac sens,YopH PTP inh,others
COc1cccc(-c2nn(-c3ccc(F)cc3)cc2C(=O)NCC2CCCO2)c1 (centres undefined),.,.,0.5,-6,.,
Cc1nn(C(C)(C)C)c(C)c1/C=N/OC(=O)Nc1ccc(Cl)c(Cl)c1,.,9%,-2.0,-13,.,
O=C(NCc1ccc2c(c1)OCO2)c1cc(-c2ccccc2)on1,-2,-12%,.,-4,-23,
NNC(=O)c1cc2nc(-c3cccs3)cc(C(F)(F)F)n2n1,-4,-3%,.,6,.,
O=C(O)CSCNC(=O)CC12CC3CC(CC(C3)C1)C2,6,-2%,1.8,1,-35,
COc1ccc([N+](=O)[O-])cc1NCc1ccccc1,-20,12%,7.5,3,-23,

# Additional structures:
SMILES,Arbovirus inh,Mtb H37Rv,RecA splice inh,Mtb bLac sens,YopH PTP inh,others
CCN(CC)C(=S)SCC(=O)c1ccc(Br)cc1,1,?,7.7,96,-34,
CCC(=O)Nc1ccc(C(=O)NNC(=O)C2CCCCC2)cc1,.,.,-0.9,0,.,
O=C(NC(=S)NC1CCCCCCCCCCC1)c1cccnc1,-11,-5%,1.7,-4,-8,
Cc1nnc2n1-c1ccc(Br)cc1C(c1ccccc1Cl)=NC2,-7,-8%,2.0,1,-33,
Cc1nc(SCc2ccc(O)c([N+](=O)[O-])c2)c([N+](=O)[O-])[nH]1,.,-12%,1.7,-3,.,
CN1Cc2c(c(C#N)c(N)n(C)c2=S)CC1(C)C,6,-5%,-47,-8,.,
COCCn1c(C)cc(/C=C2/NC(=O)N(c3cccc(Cl)c3)C2=O)c1C,-1,5%,-1.8,3,.,
Brc1ccccc1OCCOc1cccc2cccnc12,-18,9%,1.0,4,-18,
Cc1nn2c(NCCCN3CCOCC3)c3c(nc2c1-c1ccccc1)CCC3,-18,-9%,1.0,38,-43,
COc1ccc(C(=O)Nc2cc(C)on2)cc1,-4,-3%,3.9,-3,-15,
CCC(CO)NC1=CC(=O)CCC1 (centres undefined),7,-5%,-2.1,-3,.,
Cc1ccc2nc(SCC(=O)c3c(C)[nH]c4ccccc34)[nH]c2c1,-3,-1%,6.8,-3,-27,
Cc1nc2ccccc2c(C)c1C(=O)c1ccccc1,6,-5%,2.3,-1,.,
Cc1ccc(NC(=O)COC(=O)C2CC3C=CC2C3)cc1S(=O)(=O)N1CCCCC1 (centres undefined),-2,-10%,3.8,-6,-7,
COc1ccc(CNC(=S)N2CCN(S(=O)(=O)c3cccc(F)c3)CC2)cc1,.,2%,-16,-6,.,
COc1cccc(C(C(=O)NCC2CCCO2)N(C(=O)Cn2nnc3ccccc32)c2ccccc2C(C)=O)c1OC (centres undefined),.,.,4.9,2,.,
Cc1cc(Cl)ccc1OCC(=O)Nc1nc(-c2cccnc2)cs1,.,9%,-2.2,2,.,
CCCC(=O)Nc1cccc(NC(=O)CN2CCN(c3ccccc3OC)CC2)c1,-14,1%,-0.1,.,-10,
O=C(CSc1nc2ccccc2s1)Nc1ccc(C(=O)O)cc1,.,-11%,-3.2,-1,.,
CCOc1ccc(-c2csc(NC(=O)C3CCCO3)n2)cc1 (centres undefined),-2,2%,-1.2,86,-22,
NC(=O)c1ccc(C(F)(F)F)n(Cc2ccc(F)c(F)c2)c1=O,4,4%,-2.6,-3,.,
O=C(O)COn1c(-c2ccccc2)nc2ccc(Cl)cc21,-1,-4%,-1.0,-9,.,
Cc1ccc(NS(=O)(=O)c2c(C(=O)N3CCCCCC3)c(C)n(C)c2C)c(C)c1,.,.,-0.7,-7,.,
O=[N+]([O-])c1cccc(-c2nc3ccccc3s/c2=N/O)c1,.,29%,2.8,72,.,
CN(C)c1ccc(C(=O)Nc2cc(C(F)(F)F)ccc2-n2cncn2)cc1,-11,0%,-0.4,-10,-24,
CC(=O)Nc1ccc(C(=O)OCC(=O)NC2CCCCCCC2)cc1,4,-10%,-0.9,1,.,
Cc1cccc(NC(=S)N2CCCCC2c2cccnc2)c1C (centres undefined),.,-1%,-2.4,-6,.,
O=C(Cn1cnc2c(nnn2-c2ccc(F)cc2)c1=O)N1CCCc2ccccc21,6,5%,2.4,-4,8,
COc1cccc(C(C(=O)NCC2CCCO2)N(CC2CCCO2)C(=O)CN2C(=O)c3ccccc3S2(=O)=O)c1 (centres undefined),0,7%,4.0,-10,.,
O=C(NCC(c1cccnc1)N1CCOCC1)c1ccco1 (centres undefined),11,-3%,0.3,-8,13,
CCOC(=O)N1CCN(C(=O)CCc2ccc(S(=O)(=O)NC(C)(C)C)cc2)CC1,.,.,0.6,-7,.,
O=C(N[C@@H](Cc1ccccc1)C(=O)OCc1ccccc1)c1nc[nH]c1C(=O)N[C@@H](Cc1ccccc1)C(=O)OCc1ccccc1,.,.,-1.0,4,.,
COc1ccc(OCCn2c(N)nc3ccccc32)cc1,.,.,-1.1,4,.,
c1ccc(OCc2nc3ccccc3s2)cc1,0,-5%,2.6,6,18,
COc1ccc(C(NC(=O)CNC(C)=O)C(=O)Nc2ccc3c(c2)OCCO3)cc1 (centres undefined),3,-4%,-0.5,-10,-2,
CCCCNC(=O)c1c(O)c2cccc3c2n(c1=O)CCC3,-12,3%,4.7,17,-34,
Cc1c(CC(=O)O)c(=O)oc2c(C)c(OCc3ccc(F)cc3Cl)ccc12,.,.,0.0,1,.,
Cc1ccc(-c2ccc(/C=N/NC(=O)Cc3nnc(N)s3)o2)cc1Cl,.,?,2.4,95,.,
CCOc1cc2[nH]c(=O)n(CCCCC(=O)NC3CCCCCC3)c(=O)c2cc1OCC,-5,-11%,-0.6,-4,-28,
O=P(O)(O)Cc1ccccc1OP(=O)(c1ccccc1)c1ccccc1,4,.,2.5,-6,-46,
Cc1c(C(=O)NCc2ccc3c(c2)OCO3)oc2ccc(S(=O)(=O)N3CCC(C)CC3)cc12,0,1%,1.0,-8,-21,Arbovirus inh repeat=-4
O=C(CCC(=O)NNC(=S)Nc1ccccc1)NCc1ccccc1,-1,3%,-1.5,-4,-8,
c1cc2c(cc1-c1[nH]ncc1CN1CC3C[C@@H]4CC1C[C@H](C3)C4)OCO2,-2,-1%,-0.4,-3,.,
Cc1cc(-n2c(SCC(=O)NCCC3=CCCCC3)nc3n[nH]c(C)c3c2=N)ccc1Cl,.,.,-2.7,-5,.,
O=C(CCS(=O)(=O)c1cccc2nsnc12)N1CC(=O)N(CCc2ccccc2)C(=O)C1,2,-3%,0.0,-3,-31,
Cc1ccccc1NC(=O)NC1(C(=O)N2CCC(C(N)=O)CC2)CCCCC1,.,.,0.9,-7,.,
COc1ccc(Oc2cc(C)nc(Cl)n2)nn1,-5,8%,-0.6,-4,.,
O=C(Nc1cccc(F)c1)N1CCN(C/C=C/c2ccccc2)CC1,8,-9%,-3.0,-6,-15,
CC1CCCC(NC(=O)C2CCN(S(=O)(=O)c3cnc[nH]3)CC2)C1C (centres undefined),.,.,-1.7,0,.,
CCCn1nc(C(=O)Nc2ccc(S(=O)(=O)Nc3nccs3)cc2)c2ccccc2c1=O,-4,1%,2.0,25,-18,
COc1cc(OC)cc(C(=O)Nc2ccc(S(=O)(=O)Nc3ncccn3)cc2)c1,16,-3%,4.1,1,.,
CCOC(=O)CN1C(=O)CN(c2ccc(C)cc2)C1=O,2,-2%,-3.7,-3,7,
O=C(CSc1nc2[nH]ncc2c(=O)[nH]1)c1ccccc1,-4,2%,-0.6,-5,.,
CCOC(=O)c1[nH]c2ccccc2c1NC(=O)NC(C)C,.,.,-1.0,-5,.,
CCOC(=O)C1CCN(S(=O)(=O)c2ccc(CC)cc2)CC1,10,-4%,-1.3,-3,-30,
O=S(=O)(c1ccc(Cl)cc1)N1c2ccccc2Oc2nc3ccccc3nc21,-8,.,-7.5,-5,-30,
CC(C)(C)N(Cc1ccccc1)C(=O)c1cccs1,.,.,-2.0,4,.,
Cc1ccc(NC(=O)c2cccc(S(=O)(=O)N3CCN(C)CC3)c2)cc1F,.,.,-0.3,-3,.,
COc1cc(OC)c(OC)cc1/C=N/n1c(C)nnc1C,1,-7%,-2.1,1,-17,
O=C(c1ccco1)N1CCN(CCOc2ccc(F)cc2)CC1,.,.,-1.8,-4,.,
# Later entries.
SMILES,Arbovirus inh,Mtb H37Rv,RecA splice inh,Mtb bLac sens,YopH PTP inh,others
O=C(NCC1CCCO1)c1cnn2c(C(F)F)cc(C3CC3)nc12 (centres undefined),.,.,0.1,-3,.,
Cn1ccnc1SCC(=O)c1ccc(Cl)cc1,6,-1%,4.0,-5,.,
CC(=O)N1C(c2ccccc2O)C[C@]2(C)CC(=O)NC12 (some centres undefined),5,-6%,0.0,1,.,
Cc1nc2c(C)cccn2c1/C(O)=C1\C(=O)C(=O)N(CCN(C)C)C1c1ccco1 (centres undefined),.,-7%,-3.1,-3,.,
O=C(CSc1nnnn1Cc1ccccc1)Nc1ccccc1,.,-5%,0.9,-10,.,
Cn1c(/C=C(\C#N)C(N)=S)ccc1-c1ccc(Br)cc1,-13,9%,.,.,.,
COc1ccc(CNn2c(C)nc3ccccc3c2=O)cc1,-8,-8%,-1.4,0,-2,
O=C(O)C1C2CCC(C2)C1C(=O)NCCc1ccc(F)cc1 (centres undefined),.,.,-2.6,-1,.,
Cc1cc(C(=O)N2CCCC(N3CCN(c4ccccc4C)CC3)C2)n(C)n1 (centres undefined),.,.,-0.4,-1,.,
CCOC(=O)CCCNC(=O)CCNC(=O)c1ccc(OC(C)C)cc1,10,-5%,.,-1,-32,
COC(=O)/C(=C/c1ccc2c(c1)c1ccccc1n2C)NC(=O)c1ccccc1,-8,3%,-2.2,-2,-34,
CC(=O)NCC(c1cccs1)S(=O)(=O)c1ccc(F)cc1 (centres undefined),.,.,0.3,-4,.,
CS(C)(=O)=NS(=O)(=O)c1ccc(Cl)cc1,0,-4%,.,6,-40,
COc1ccc2cc(CN(Cc3ccco3)Cc3nnnn3C3CCCCC3)c(=O)[nH]c2c1,-33,0%,7.2,5,-39,

# The list is partial (hit frequency here may not be typical).
